Compound activity from PubChem BioAssay.
HSD17B inh = qHTS Assay for Inhibitors of HSD17B4, hydroxysteroid (17-beta) dehydrogenase 4; recombinant HSD17B10, NADH fluorescence kinetic; many of its hits are not listed in these tables; Potency, µM (doses to about 57.1 µM), for inactives: at the top dose activity change, negative = inhibition, actives largely listed as inhibitors; actives 7.6% (n = 75,000); active = well fitted inhibition curve with a large enough effect; inconclusive = small, poorly fitted or top-dose-only effect; inactive = no such curve, though single readings can be large or run the other way;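 note: the protocol describes HADH2 (HSD17B10) and not the HSD17B4 of the title; nearly all actives have a fitted effect of over 70% in size; most hits overshoot -100% by far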
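20 nM HADH2, pH 9.0 Tris/Tween; cpd preinc 15 min RT; start w/ 1 mM NAD+ + 90 uM b-hydroxybutyryl-CoA; kinetic fluor ex360/em450 q30s x 4 min; delta last-first.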
An asterisk follows results filed as active; ? = inconclusive; [ ] = another dose, or the depositor's remark. % is set by controls: 0 for no effect and ±100 for the full control effect; potency is the fitted concentration of half-maximal effect. A portion of the library; rates above refer to the full screens.

No.	SMILES	HSD17B inh
1	COC(=O)c1ccccc1NC(=O)c1cncc(Br)c1	4.0%
2	COc1cccc(S(=O)(=O)Nc2cccnc2)c1	6.3%
3	O=C(O)CCC(=O)N1CCc2cc(S(=O)(=O)NC3CCCc4ccccc43)ccc21 (centres undefined)	16.8%
4	Cc1cc(C)n(-c2c(F)c(F)c(CN3CCOCC3)c(F)c2F)n1	6.0%
5	Cc1ccc(-c2noc(CSc3nnc(-c4ccccc4)n3C)n2)cc1	-4.2%
6	COC(=O)c1c(NC(=O)CN2CCN(c3ccccc3OC)CC2)c2cc(C)ccc2n1C	-9.6%
7	O=C(CSc1ccccc1)Nc1ccc(S(=O)(=O)NCC2CCCO2)cc1 (centres undefined)	-10.9%
8	CN(C)C(=O)c1ccc(-c2nc(NCc3cccnc3)c3ccccc3n2)cc1	-22.0%
9	CCCn1c(=O)[nH]c2nc(-c3ccc(S(=O)(=O)O)cc3)[nH]c2c1=O	12.6µM*
10	C1CCC2(CC1)C1=C(CCCC1)Nc1nnnn12	-9.3%
11	CCOC(=O)c1ccc(NC(=O)NCc2ccn(CC)n2)cc1	7.6%
12	CC(=O)c1cccc(NC2c3ncccc3C(=O)N2Cc2ccco2)c1 (centres undefined)	-25.9%
13	CN(CCC#N)S(=O)(=O)c1ccc2c(c1)c(=O)n(C)c(=O)n2C	-13.3%
14	CCCCCCn1c(N(CC)CC)nc2c1c(=O)[nH]c(=O)n2C	-2.1%
15	O=C(NCc1ccco1)C(c1cccnc1)N(C(=O)Cn1nnc2ccccc21)c1ccc(F)cc1 (centres undefined)	-0.3%
16	N#Cc1ccc(CSc2ncnc3c2cnn3Cc2ccccc2)cc1	-17.9%
17	N=c1n(CCN2CCCC2)c2ccccc2n1CC(O)c1ccco1 (centres undefined)	1.9%
18	c1ccc2[nH]c(CSc3nnc(-c4ccncc4)o3)nc2c1	-14.6%
19	O=C(O)c1cccc(NC(=O)C23CC4CC(C2)CC(n2cnc(Cl)n2)(C4)C3)c1	-12.9%
20	COc1ccc(NC(=O)C(c2ccccc2)N(C)C(=O)c2cnccn2)cc1 (centres undefined)	9.8%
21	NC(=O)CS(=O)C[C@H](N)C(=O)O (some centres undefined)	-18.7%[11.4 µM]
22	CCOc1cc2[nH]c(=O)n(CCCC(=O)NCc3ccco3)c(=O)c2cc1OCC	25.1µM*
23	Cn1c(=O)c2nc(-c3ccc(Cl)cc3Cl)oc2c2ccccc21	25.1µM*
24	COc1cc(C(=O)Nc2c(-c3ccccn3)c(=O)c3ccccc3n2C)cc(OC)c1OC	7.6%
25	CC(=O)OC(C(=O)NC1CCCCC1)c1ccc(C#N)cc1 (centres undefined)	0.0%
26	COc1cc(C)c(Cl)cc1S(=O)(=O)NCC1CCCO1 (centres undefined)	-1.5%
27	O=C(CSc1nnc2ncccn12)N1CCCCCC1	-16.8%
28	COc1ccc(C2CC(C(F)(F)F)n3nc(C(=O)O)c(Cl)c3N2)cc1OC (centres undefined)	3.5%
29	CCOC(=O)c1cccc(NC(=O)CN(c2ccc(C)cc2)S(=O)(=O)c2c(C)noc2C)c1	5.6%
30	COc1ccc(N2C(=O)CC(Sc3nnc(-c4ccccc4)o3)C2=O)cc1 (centres undefined)	?
31	Cc1nc(C)c(C(=O)Nc2ccc(Oc3ccccc3)cc2)o1	-10.2%
32	COc1ccc(OCC(=O)Nc2cccc(NC(=O)COc3ccc(OC)cc3)n2)cc1	4.8%
33	CCCCC(=O)NC1=NC(=O)C(C)(C)S1	5.4%
34	Nc1c(C(=O)NCC2CCCO2)sc(=S)n1-c1ccccc1 (centres undefined)	-0.8%
35	CO[C@H]1COC(=O)C/C=C\[C@H](C)[C@@H](OC)COC(=O)[C@H](Cc2ccccc2)NC(=O)C/C=C\[C@@H]1C	-0.6%[11.4 µM]
36	CCCC(=O)NCCc1cc2ccc(C)c(C)c2[nH]c1=O	?
37	CCC[C@@H]1C[C@@]1(CCC)[C@@H](NC(=O)c1ccccc1)c1ccc(C(=O)OC)cc1	0.4%
38	CCCOCCOC(=O)C1=C(C)NC(=O)NC1c1cc(Cl)c(O)c(OC)c1 (centres undefined)	-25.0%
39	O=C(Cc1ccc(-c2ccccc2)cc1)NCCN1CCOCC1	-1.2%
40	C/C(N)=C(/C#N)C(=O)COc1ncnc2ccccc12	-7.9%
41	CCCCS(=O)CC(O)COc1ccc(C(C)(C)C)cc1 (centres undefined)	?
42	CCC(C)(C)n1nnnc1C(c1ccc(Cl)cc1)N1CCN(C)CC1 (centres undefined)	7.2%
43	COc1cc(OC)c2c(=O)c(-c3ccc4c(c3)OCO4)coc2c1	-9.4%
44	O=C(O)c1ccc(NCc2cccnc2)cc1	1.2%
45	O=C(O)CCCN1C(=O)NC2NC(=O)NC21 (centres undefined)	1.5%
46	Cc1c(C(=O)Nc2cccc(Cl)c2)oc2ccc(S(=O)(=O)N3CCC4(CC3)OCCO4)cc12	?
47	O=C(Nc1nc(-c2ccc3c(c2)OCO3)cs1)C1CC1	-6.9%
48	CC(C)=C(NC(=O)c1ccco1)C(=O)NCCc1nc2ccccc2[nH]1	4.0%
49	COc1cccc(-n2cnc3cccc(N)c32)c1	2.2%
50	CO[C@@H]1/C=C\CC(=O)N2CCC[C@@H]2C(=O)OC[C@H](C)C(=O)OC[C@H]1C	1.9%[11.4 µM]
51	COc1ccc(NC(=O)CSC2CC(=O)N(c3ccc4c(c3)OCCO4)C2=O)cc1 (centres undefined)	-0.3%
52	O=C(c1ccc2snnc2c1)N1CCOCC1	-6.0%
53	CCSc1nc2c(c(=O)n1-c1ccc(F)cc1)SCC2	-1.1%
54	Cc1nonc1OCCn1nnnc1N	-2.5%
55	N#Cc1cccc(-c2cncnc2NCc2ccccc2)c1	3.9%
56	CCn1c(=O)c(C(=O)Nc2ccccc2S(N)(=O)=O)c(O)c2ccccc21	-23.4%
57	Cc1nnc(SCc2nnc(-c3ccc(Cl)cc3)o2)n1-c1ccccc1	-8.5%
58	COCCN(CC(=O)NCc1ccc(OC)cc1)C(=O)CCC(=O)Nc1nccs1	2.8%
59	Cc1nc(Nc2ccccc2)c2nc(-c3ccccc3)n(CCCN3CCCCC3C)c2n1 (centres undefined)	31.6µM*
60	CCOC(=O)c1c(NC(=O)c2nn(CC)cc2Br)sc2c1CCCCC2	5.01µM*

(list continues)
No.	SMILES	HSD17B inh
61	CC(C)(C)c1ccccc1OCCN1CCCC1	2.1%
62	CC(C)CSc1nc2c(c(=O)[nH]c(=O)n2C)n1CC(O)COc1cccc2ccccc12 (centres undefined)	?
63	CCCC(=O)NCCCc1nc2ccccc2n1CC	0.5%
64	Cc1ccc2oc(=O)ccc2c1	3.7%
65	Cc1ccc(-c2nnn(CC(=O)Nc3cccc4c3CCCC4)n2)o1	1.1%
66	CC(CCC(=O)Nc1nncs1)C(=O)O (centres undefined)	3.8%
67	CCc1c(C)nc2ncnn2c1N1CCC(C(=O)Nc2cccc(C(C)=O)c2)CC1	9.4%
68	Cc1ccc(S(=O)(=O)NC(CC(=O)NC2CCCC2)c2ccco2)cc1 (centres undefined)	6.2%
69	Cc1[nH]c(=O)[nH]c(=O)c1S(=O)(=O)N1CCCC(C(=O)NCCc2ccc(Cl)cc2)C1 (centres undefined)	8.8%
70	O[C@H](CCCN1CCN(c2ncc(F)cn2)CC1)c1ccc(F)cc1	-0.5%
71	c1ccc2oc(SCc3cn4ccsc4n3)nc2c1	5.7%
72	C=CCn1c(N)c(C(=O)NCC2CCCO2)sc1=S (centres undefined)	?
73	COc1ccccc1CCn1cnc2c3cc(C)ccc3n(C)c2c1=O	31.6µM*
74	CCN(CC)Cc1cc2ccccc2c2c1COC2	-10.7%
75	Cc1nnc(SCCn2c(N3CCCC(C)C3)nc3c2c(=O)n(C)c(=O)n3C)s1 (centres undefined)	-7.4%
76	O=C(C1CCCN(S(=O)(=O)c2ccccc2)C1)N1CCCCCC1 (centres undefined)	4.9%
77	O=C(NC1(C(F)(F)F)NC(=O)N(Cc2ccco2)C1=O)c1cccnc1 (centres undefined)	-8.6%
78	CC(=O)N(C(C)=O)c1ccc2nc(C)[nH]c(=O)c2c1	39.3%[activator]
79	COc1cccc(OC)c1C(=O)Nc1ccc(CN2CCCCC2)cc1	3.8%
80	COc1cccc(NS(=O)(=O)c2cc(C)sc2C)c1	3.7%
81	NC1=CC(=O)c2cccc3cccc1c23	?
82	O=C(c1cnccn1)N1CCC2(CC1)CN(Cc1nccs1)C2	2.8%
83	Oc1ccc(-c2nc(-c3ccc(O)c(O)c3)cs2)cc1	25.1µM*
84	CCS(=O)(=O)N1CCN(C(=O)CC(C)C)CC1	4.8%
85	CCCn1c(=O)c(C)cn2nc(N)nc12	25.1µM*
86	CN(C)c1ccc(NC(=O)CC2NCCNC2=O)cc1 (centres undefined)	2.6%
87	C[n+]1cc2c3c(ccc2c2ccc4cc5c(cc4c21)OCO5)OCO3	25.1µM*
88	CCC(c1nnnn1Cc1ccc(F)cc1)N(CCCO)Cc1cc2cc3c(cc2[nH]c1=O)OCO3 (centres undefined)	25.1µM*
89	Cc1nnc(SCc2cc(=O)[nH]c(N3CCN(Cc4ccccc4)CC3)n2)s1	-2.9%
90	CCc1nnc(NC(=O)CSc2nnc(COc3ccc(C#N)cc3)n2-c2ccccc2)s1	4.9%

Random excerpt: five compounds from above
No.	SMILES	HSD17B inh
79	COc1cccc(OC)c1C(=O)Nc1ccc(CN2CCCCC2)cc1	3.8%
87	C[n+]1cc2c3c(ccc2c2ccc4cc5c(cc4c21)OCO5)OCO3	25.1µM*
83	Oc1ccc(-c2nc(-c3ccc(O)c(O)c3)cs2)cc1	25.1µM*
88	CCC(c1nnnn1Cc1ccc(F)cc1)N(CCCO)Cc1cc2cc3c(cc2[nH]c1=O)OCO3 (centres undefined)	25.1µM*
81	NC1=CC(=O)c2cccc3cccc1c23	?

The listing continues:
No.	SMILES	HSD17B inh
91	O=C(O)[C@@H](S)[C@H](S)C(=O)O	-26.0%[11.4 µM]
92	c1ccc2c(c1)CCCN2Cc1nnnn1CC1CCCO1 (centres undefined)	-11.7%
93	CC(C)Oc1ccc(C2CC(=O)N(c3cccc(C(=O)O)c3)C2=O)cc1 (centres undefined)	7.1%
94	Cc1nc2c(n1O)CCC/C2=N\O	-9.6%
95	CCOC(=O)CCCNC(=O)COC(=O)c1cccc(C)c1O	287.6%[activator]
96	CC(=O)Nc1cccc(C(=O)OCc2ccccc2)c1	6.7%
97	Cc1cnc(C)c(N2CCC(C(=O)NCc3ccco3)CC2)n1	-4.7%
98	C=CCn1c(SCC(=O)N2CCOCC2)nc2scc(-c3ccco3)c2c1=O	-18.9%
99	COCCn1c(=O)[nH]c2cc(C(=O)N3CCN(c4ccccc4OC)CC3)ccc2c1=O	-10.6%
100	CCOc1ccc(CNC(=O)C(CC)n2nc(C)n3c(cc4occc43)c2=O)cc1OC (centres undefined)	8.4%
101	Cc1cc(C)c2c(n1)nn1c(NCCCN3CCOCC3)cc(C)nc21	25.1µM*
102	CC1(C)CC(=O)C2=C(C1)Nc1ccccc1NC2c1nc2ccccc2[nH]1 (centres undefined)	-10.4%
103	O=C(COC(=O)CNC(=O)c1ccc(Br)o1)Nc1ccc2c(c1)OCCO2	-0.8%
104	Cc1cc(C(=O)NC(C)C)on1	1.5%
105	COc1ccc(OC)c(NC(=O)CSc2nnc(C)n2Cc2ccccc2)c1	-13.0%
106	Cc1noc(N)c1C(=O)Nc1ccc(F)c(Cl)c1	-2.5%
107	COC(=O)C1=C(C)N(c2ccc(F)cc2)C(=O)C1	1.0%
108	O=S(=O)(Nc1cccc2ccccc12)N1CCCC1	31.6µM*
109	COC(=O)c1ccc(C(NC(=O)OCc2ccccc2)/C(C)=C/[C@@H](C)C(=O)N2CCN(C)CC2)cc1 (some centres undefined)	-1.1%
110	Cc1cc(C(=O)NCc2cc(C(=O)O)oc2C)c(C)o1	6.1%
111	COc1ccc(CCN(Cc2nc3ccccc3c(=O)[nH]2)C(=O)c2ccco2)cc1OC	0.7%
112	O=C(c1ccc(Cl)cc1)N1CCC(c2nc(-c3cccs3)no2)CC1	0.4%
113	O=C(CSc1nnc(-c2ccccc2Cl)o1)N1CCCCC1	10.0%
114	CCCc1c(OCCCCc2nn[nH]n2)ccc(C(C)=O)c1O	-8.2%
115	CCOC(=O)c1c(C)c(C(=O)NCc2cccs2)c(C)n1CC	-1.4%
116	CCOc1ccccc1N1CCN(C(=O)c2cc(C)oc2C)CC1	0.6%
117	CC(Sc1nncs1)C(=O)NCc1ccc2c(c1)OCO2 (centres undefined)	8.4%
118	c1ccc(CSc2nnc3c(n2)OC(c2ccco2)Nc2ccccc2-3)cc1 (centres undefined)	-15.1%
119	COC(=O)c1cc(OC)c(OCc2cc(C(=O)OC)oc2C)c(OC)c1	1.8%
120	CCOC(=O)CNC(=O)Cn1cnc2ccc(S(=O)(=O)N3CCC(C)CC3)cc2c1=O	-3.1%
121	Cc1ccc(S(=O)(=O)NCCSc2nnc(N)s2)cc1	11.3%
122	Cc1cccc(NC(=O)CCn2ccnc2C)c1	9.5%
123	COc1ccc(CCN(Cc2cc3cc(C)ccc3[nH]c2=O)C(=O)N2CCCC2)cc1OC	-25.6%
124	CCOC(=O)Cc1csc(NC(=O)CN2C(=O)c3ccccc3S2(=O)=O)n1	-3.2%
125	Cc1noc(C)c1-c1ccc2ncnc(N3CCOCC3)c2c1	13.6%
126	COCCNC(=O)C(c1ccco1)N(C(=O)Cn1nnc2ccccc21)c1ccccc1C (centres undefined)	-1.6%
127	CC1CC2(C)Oc3ccccc3C3OCC1(COC(=O)Nc1ccccc1)C(C)C32 (centres undefined)	-5.2%
128	O=C(COc1ccc(Cl)cc1)NCc1nnc(SCC(=O)NC2CCCC2)o1	5.5%
129	CC(C)CCNC(=O)CCS(=O)(=O)c1cccc2nonc12	7.4%
